# Screening data (PubChem BioAssay)
# CDC25B CDK2 inh = human CDC25B-CDK2/CyclinA binding inhibition; P30305+P24941; z-score (no concentration beside the values); 0.72% of 94,000 active; HTRF CDC25B-CDK2/CyclinA binding, anti-His/anti-Flag; active compounds read high;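 note: score is relative to mean and SD of negative controls; strong numbers were not always called active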
# HIV TAR-Tat = HIV-1 TAR-Tat binding disruption | HIV-1 TAR RNA, Tat peptide displacement FRET; active compounds read high | 0.6% of 100,000 active | z-score (no concentration beside the values);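 note: score is relative to mean and SD of negative controls; some compounds called inactive have numbers as strong as hits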
# The depositor's hits bear a star; · = no result given.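 Rule for the calls: active = z-score from 3 up in half or more of its runs; inactive = the rest.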
SMILES,CDC25B CDK2 inh,HIV TAR-Tat
N#Cc1c[nH]c2ccc(NC(=O)/C=C/c3ccc(OC(F)(F)F)cc3)cc12,-1.58,·
CCOc1ccc(S(=O)(=O)[C@H]2CS(=O)(=O)C[C@@H]2NCc2ccc3c(c2)OCO3)cc1,-2.13,0.03
Cc1c(C(=O)NCCN2CCN(C)CC2)oc2c1-c1[nH]ncc1CC2,0.88,0.93
COc1ccc(CCNS(=O)(=O)c2ccc3c(c2)OCCO3)cc1OC,-0.28,0.43
O=C(Nc1nc(-c2ccc(Br)cc2)ns1)c1ccccc1F,-0.63,0.85
CSc1ccc(CN2CCN(S(C)(=O)=O)CC2)cc1,0.68,-0.57
CCCCCCNC(=O)CCc1c(C)nc2c3c(C)cc(C)nc3nn2c1C,-0.37,0.95
CCCCNC(=O)CCS(=O)(=O)c1cc(Br)cc2c1N(C(C)=O)CC2,-0.79,·
CCNc1nc(OC)nc(-n2cnc(SCc3ccccc3)n2)n1,-0.79,1.42
N#Cc1nc(/C=C/c2ccc(F)cc2)oc1N1CCN(C(=O)c2cccs2)CC1,-0.89,-1.82
CC(C)(C)NC(=O)NNc1nc2ccc(Cl)cc2s1,-1.08,·
CN(C)C(=O)c1ccc2c(c1)nc(CN1CCN(S(=O)(=O)N(C)C)CC1)n2C,·,1.13
Cc1ccc(-c2noc(-c3nnn(-c4ccc(C)cc4)c3C)n2)cc1,·,0.92
COc1ccc(-c2nc(SCC(=O)c3ccc(Br)cc3)n[nH]2)cc1,-1.2,-1.54
CCC(Sc1nnc(C)n2c1cc1sccc12)C(=O)Nc1ccc(OC)c(Cl)c1 (configuration not stated),·,3.68
c1ccc(-c2cc3ccccn3c2)cc1,-0.72,0.17
O=C(O)CCCCn1c(SCc2cc(=O)n3cc(Cl)ccc3n2)nc2ccsc2c1=O,-0.25,·
CCN1C(c2ccccc2)=C(c2ccccc2)S/C1=C/C=Nc1ccccc1,-1.1,·
Cc1nc(-c2ccc(C)c(N3CCN(C(=O)Nc4ccc5c(c4)OCO5)CC3)c2)no1,·,1.04
COc1ccc(NC(=O)CN2N=NC3C(=O)N(c4ccc(OC)c(Cl)c4)C(=O)C32)cc1 (configuration not stated),·,-0.6
COc1ccc(S(=O)(=O)N2CCC(C(=O)O)CC2)cc1,-0.58,1.22
CSc1nc(CSc2ccc(Cl)cc2)nc(N)c1C#N,-0.88,·
Cn1cc(S(=O)(=O)c2ccccc2)c(=O)c2cc(F)c(N3CCN(Cc4ccccc4)CC3)cc21,·,0.6
Cc1ccc(-c2ccc3c(c2)C=C(C(=O)NC2CCCC2)CO3)cc1,·,0.93
CCN1CCCC1CNC(=O)c1cc(=O)nc2sc(N3CCCCC3)nn12 (configuration not stated),·,-0.73
O=C(O)C1Nc2ccc(Cl)cc2C2C=CCC12 (configuration not stated),-2.14,42*
Cc1ccc(S(=O)(=O)Nc2c(-n3cnnc3)nn(C)c2C)cc1,-1.69,-0.36
CC(C)Oc1ccc(CSc2nc(N)c3c4c(sc3n2)COC(C)(C)C4)cc1,-0.57,2.66
O=C(CN1C(=O)c2cccnc2Oc2ccc(Cl)cc21)NCC1CCCO1 (configuration not stated),·,0.67
COc1ccc(S(=O)(=O)[C@H]2CS(=O)(=O)C[C@@H]2NCC2CCCO2)cc1 (some centres not stated),-0.15,0.97
Cc1cc(=O)[nH]c2c3ccccc3nn12,0.02,·
CSc1ccc(C2c3c(-c4c(C)cc(C)cc4O)n[nH]c3C(=O)N2CCO)cc1 (configuration not stated),-2.23,-0.88
CCc1nnc(NC(=O)CSc2ccc3nnc(-c4ccccn4)n3n2)s1,·,1.2
COc1ccc(CC2CCC3(CC2)NC(=O)c2ccccc2O3)cc1 (configuration not stated),-0.45,·
CC(C)NC(=O)CSc1nnc(-c2ccncc2)o1,-0.75,1.34
Cc1ccccc1CN1c2cccc3cccc(c23)S1(=O)=O,-1.84,-0.06
CC(NC(=O)Nc1cccc(Br)c1)c1c(-n2cccc2)sc2c1CCCC2 (configuration not stated),-0.36,0.92
CS(=O)(=N/C=C(\C#N)C(=O)C1CC1)c1ccc(Oc2cccc(F)c2C#N)cc1 (configuration not stated),-0.59,·
Cn1c(NCc2ccco2)nc2c1c(=O)n(Cc1ccccc1F)c(=O)n2C,0.57,·
O=[N+]([O-])c1cc(Cl)ccc1Sc1ccccc1NS(=O)(=O)c1ccc(F)cc1,-1.23,·
COC(=O)c1cc2c(C)nn(-c3ccccc3)c2s1,-0.99,-0.14
COc1ccc2cc(C#N)c(Cl)nc2c1,-0.63,·
Fc1ccccc1-c1nc(-c2ccccn2)no1,-1.2,·
CCCn1c(=O)c2ccc(C(=O)NCC(C)C)cc2n2c(=O)[nH]nc12,-1.63,0.05
CC1=C(C(=O)OC(C)C)C(c2ccccc2F)C2=C(CC(c3cccs3)CC2=O)N1 (configuration not stated),0.47,-0.02

# Molecules shown so far containing a COOH group:
SMILES,CDC25B CDK2 inh,HIV TAR-Tat
O=C(O)CCCCn1c(SCc2cc(=O)n3cc(Cl)ccc3n2)nc2ccsc2c1=O,-0.25,·
COc1ccc(S(=O)(=O)N2CCC(C(=O)O)CC2)cc1,-0.58,1.22
O=C(O)C1Nc2ccc(Cl)cc2C2C=CCC12 (configuration not stated),-2.14,42*

# Next part.
SMILES,CDC25B CDK2 inh,HIV TAR-Tat
CC(=O)NC1=NN(C(C)=O)C(c2ccc(Br)cc2)S1 (configuration not stated),-1.71,-0.59
CCc1cc2c3c(c(=O)oc2cc1OCc1cc(C(=O)O)oc1C)CCCC3,-12.4,·
Cc1ccnc(SCCn2c(N3CCCCCC3)nc3c2c(=O)n(C)c(=O)n3C)n1,-1.23,·
O=c1c2c(-c3ccccc3)csc2ncn1Cc1ccc2c(c1)OCO2,-0.27,1.35
C=CCNC(=O)c1ccc2c(c1)S(=O)(=O)N=C(C)N2CCCC,·,0.66
COc1cc(C2CC(=O)N3CN(C4CCCCC4)CSC3=C2C#N)ccc1O (configuration not stated),3.78*,-0.98
O=S(=O)(c1ccc(-c2cnc(C3CC3)o2)cc1)N1CCCCC1,·,1.97
O=C(Nc1ccc(Br)cc1)c1ccc(-c2ccc(Cl)c(Cl)c2)o1,-3.11,·
CC1(C)Cc2c(c(N3CCOCC3)nc3sc4c(N5CCCCC5)ncnc4c23)CS1,-1.36,0.54
O=C(Cn1c(=O)c2cccn2c2cccnc21)NCCCN1CCc2ccccc2C1,·,-0.34
CCOC(=O)C1C(=O)Oc2ccc(Br)cc2C1C1(C(=O)OC)CCCCC1 (configuration not stated),-0.19,·
C=CCOc1cccc(C2c3c(oc4ccccc4c3=O)C(=O)N2c2nc(C)c(C)s2)c1 (configuration not stated),0.21,0.35
Cc1ccc(-n2cc[nH]c(=S)c2=O)cc1C,-1.96,2.78
COc1ccc(Nc2nc3ccccc3c3nnc(C)n23)cc1Cl,-1.15,-1.12
O=C(Cn1c(=O)c2ccc(Cl)cc2n2nncc12)NCc1ccc2c(c1)OCO2,-0.31,-1.11
Cc1ccc(C)c(NCc2ccc3c(c2)OCO3)c1,-1.11,0.88
Cc1ccc2nc(C3C(=O)c4ccc(O)cc4C3=O)cc(C)c2c1 (configuration not stated),0.79,6.3
CCN(CC)c1ccc2nnc(CCC(=O)NCc3ccccn3)n2n1,·,0.62
Cc1cc(C)c2c(c1)N[C@@H](c1ccc(C(=O)O)cc1)[C@H]1CC=C[C@@H]21,1.81,·
FC(F)(F)c1nc(NCC2CCCO2)nc2c1CCCCC2 (configuration not stated),-0.79,0.69
COc1ccc(Nc2nccc(-c3cccc(N)c3)n2)cc1,4.46,1.41
CCCC(=O)N(c1ccc2oc(=O)sc2c1)S(=O)(=O)c1cccs1,-1.21,1.24
CCOC(=O)c1c(S(=O)(=O)N2CCCC(C(=O)NCc3ccc(C)o3)C2)c(C)n(C)c1C (configuration not stated),·,0.88
COc1ccc(-c2nc(NCCCN(Cc3ccco3)C3CCCC3)c3ccccc3n2)cc1,·,0.82
Cc1cc(C)c(S(=O)(=O)Nc2ccc(-c3cn4ccccc4n3)cc2)cc1C,1.65,-1.68
O=C(CSc1nc(-c2cccc(F)c2)nc2cc(=O)[nH]n12)Nc1ccccc1,·,16.4
CCC(=O)N(c1ccc(OC)cc1OC)C1C=CS(=O)(=O)C1 (configuration not stated),-0.33,-0.04
Fc1cccc(Cl)c1/C=C/c1cnc2ccccc2n1,-2.82,·
CCOC(=O)C1CCCN(c2c(NC3CCN(C(=O)OCC)CC3)c(=O)c2=O)C1 (configuration not stated),-1.81,-0.54
CCOc1ccc(C(O)(CC)C(CN2CCCC2)c2ccccc2)cc1 (configuration not stated),-1.72,2.04
CCc1nn(CC(=O)NCCCN2CCN(C3CCCCC3)CC2)c(=O)c2cc3sccc3n12,0.94,0.97
O=C(c1cc(-c2ccccc2)nc2ccccc12)N1CCOCC1,0.07,-1.46
COc1ccccc1Nc1nc(N)nc(CN2CCN(c3ccccc3OC)CC2)n1,·,-0.06
Brc1ccc(-n2cc(-c3ccccc3)c3c(NCc4ccco4)ncnc32)cc1,·,0.97
CCCOc1ccc(Oc2nc(NC(C)(C)C)nc(N(C)C)n2)nn1,-1.4,1.84
CCCn1ccc2cc(S(=O)(=O)N3CCN(S(=O)(=O)c4c(C)cc(C)cc4C)CC3)ccc21,-2.25,1.5
COc1ccccc1Nc1nc(N)nc(CSc2nc3ccccc3s2)n1,-1.9,0.92
CN1C(=O)C(C)(C)c2cc(S(=O)(=O)N3CCN(c4ccccc4)CC3)ccc21,·,1.33
COc1cc(Cl)cc(CNC(C)C(=O)O)c1O (configuration not stated),0.41,·
Nc1nc2c(c(=O)[nH]1)C(c1ccc(OCc3ccccc3)cc1)CC(=O)N2 (configuration not stated),-0.51,-1.58
CCOc1ccc(-c2nc3c(c(=O)[nH]2)Cc2cc(F)ccc2O3)cc1,-0.04,0.95
Cn1c(C(=O)NC2CCCC2)cc2c(=O)[nH]c3ccccc3c21,-0.88,0.62
N#Cc1c(Cl)cccc1Oc1ccc(S(=O)(=O)NNc2c(Cl)cncc2Cl)cc1,3.01,·
CC1=C(c2ccccc2)S(=O)(=O)N(CC(=O)O)C1=O,0.31,0.69
Cn1c(C(=O)NCc2cccnc2)cc2sc(Cl)cc21,-0.87,·
O=C(Nc1cccc2ncccc12)C1CCN(c2ncccn2)CC1,-0.76,1.59
COc1ccc(COC(=O)C2=C(C)NC3=C(C(=O)CC(C)(C)C3)C2c2ccc(OC)c(O)c2)cc1 (configuration not stated),-1.64,2.71
O=S(=O)(Cc1noc(-c2ccsc2)n1)c1ccccn1,0.68,·
Cc1nc(-c2ccc(C)c(S(=O)(=O)Nc3ccccc3F)c2)cs1,·,1.84
COc1ccc(-c2noc(N3CCC(N4CCCCC4)CC3)n2)cc1,-2.61,0.33
CCOC(=O)C1CCN(S(=O)(=O)c2cc3c(cc2C)NC(=O)CO3)CC1,·,1.79
CCc1ccc(OCc2nc(-c3ccncc3)no2)cc1,-0.19,-0.74
CC1=C(C(=O)Nc2ccc(C)cn2)C(c2cccnc2)C2=C(CCCC2=O)N1 (configuration not stated),-1.78,-0.62
Cc1ccc(-c2c(NC3CCCCC3)c(=O)c2=O)cc1,·,1.82
Cc1cc(=O)[nH]c(SCc2ccccc2)c1C#N,-0.53,·
CN(C)/C=C/C(=O)c1ccc(C#N)s1,-1.36,·
Cc1[nH]cnc1CSCCNC(=O)C1=Cc2ccccc2OC1,·,0.64
O=C(NCCC1=CCCCC1)c1cccc(-n2cnnc2)n1,·,2.32
CCOC(=O)c1noc2nc(C)nc(NC3CCCCC3)c12,·,-0.3
Cc1ccc2c(=O)c(C(=O)c3ccc(Br)cc3)cn(CC(=O)NC3CCCC3)c2n1,·,-4.87

# Compound profiles (already shown). Screens in order: CDC25B CDK2 inh	HIV TAR-Tat
# Cc1cc(C)c(S(=O)(=O)Nc2ccc(-c3cn4ccccc4n3)cc2)cc1C is listed with 1.65	-1.68
# O=C(Nc1ccc(Br)cc1)c1ccc(-c2ccc(Cl)c(Cl)c2)o1 is listed with -3.11	·
# CCOc1ccc(-c2nc3c(c(=O)[nH]2)Cc2cc(F)ccc2O3)cc1 is listed with -0.04	0.95
# O=C(O)C1Nc2ccc(Cl)cc2C2C=CCC12 (configuration not stated) is listed with -2.14	42*
# COc1ccc(Nc2nccc(-c3cccc(N)c3)n2)cc1 is listed with 4.46	1.41

# (continued)
SMILES,CDC25B CDK2 inh,HIV TAR-Tat
Nc1ccccc1Sc1nc(Cl)nn1CCc1ccccc1,·,1.41
COc1ccc(/C=C/c2nn3c(Cn4cnc5ccccc54)nnc3s2)cc1,-0.19,0.82
Cc1ccc(-c2nc(SCc3cc(=O)n4nc(C)sc4n3)n[nH]2)cc1,·,-0.06
Cc1noc(C)c1C1CCCN1Cc1cc(Br)ccc1F (configuration not stated),·,1.79
Cc1nc2scc(C)n2c(=O)c1S(=O)(=O)NCC1CCN(Cc2ccc(F)cc2)CC1,-1.28,-0.66
CCCc1cc(=O)n2[nH]c(NCc3ccc(Br)cc3)nc2n1,-1.05,0.5
COc1ccc(N(CC(O)Cn2c(C)nc3ccccc32)S(=O)(=O)c2ccccc2)cc1 (configuration not stated),-0.71,0.03
CCOc1ccc(C(N)=O)c(SCC(=O)O)c1,-1.58,·
COC(=O)c1ccsc1N,-0.83,·
CCOC(=O)c1[nH]c(C)c(C(=O)NCCOC)c1C,0.36,·
Cc1noc(/C=C/c2cccs2)c1S(=O)(=O)N1CCCC(C(=O)N2CCCCC2)C1 (configuration not stated),-0.81,1.72
O=C(c1ccc2noc(-c3ccc(Cl)cc3)c2c1)N1CCN(C(=O)c2ccco2)CC1,·,1.63
COc1cc(Cl)c(CC2C(=O)Nc3ccccc32)cc1OC (configuration not stated),-1.81,1.29
